# Compound activity from PubChem BioAssay.
# D2 PAM = human D2 receptor positive allosteric modulation; P14416; DiscoveRx D2 beta-arrestin cells, luminescence, 90 min; 100% = 57 uM dopamine signal; potentiation, % (concentration not given with the values); 360,000 tested, 0.23% active; active = potentiation of 50% or more; inconclusive = 30% to 50%; inactive = 30% or less;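 also: compound concentration not given in the record; tested on top of an EC20 dose of dopamine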
#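 PathHunter beta-arrestin assay in DiscoveRx D2 cells. Compounds were added with an EC20 of dopamine (50 nM final) for 90 min at 37 deg C. Luminescence was read 1 h after detection reagent, with 57 uM dopamine as the EC100 control.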
# gsp antag = gsp mutant antagonism | gsp-mutant cells, cAMP HTRF, 30 min; control for the full effect not named in the record | Potency, µM (doses to about 76.9 µM), without a hit: at the top dose activity change, negative = inhibition, actives largely listed as inhibitors | 340,000 tested, 0.4% active | AID 624288; active = falling curve of any shape with a large fitted effect; inconclusive = falling curve, mostly with a smaller effect; inactive = flat or rising curve; cell line not stated here;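 also: intracellular cAMP measured with PDE inhibitor Ro 20-1724 present during compound exposure; potency is read from the fitted curve at half-maximal effect; % is scaled to controls: 0 for no effect and ±100 for the full control effect; nearly all actives have a fitted effect of over 65% in size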
#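 Measurement of cellular cAMP by homogeneous time-resolved fluorescence following a 30 min compound exposure at 37C. The PDE inhibitor […] was present throughout; the assay buffer was DPBS with 0.05% BSA and 0.005% Tween 20.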
# Sfp inh = inhibitors of Bacillus subtilis Sfp phosphopantetheinyl transferase. Q9F4F7. AID 1490. 310,000 tested, 3.5% active. Potency, µM, inactives show max response, negative = inhibition, hits mostly inhibitors. Biochemical Sfp PPTase activity, qHTS; active = well fitted inhibition curve with a large enough effect; inconclusive = small, poorly fitted or top-dose-only effect, or another doubt; inactive = no such curve, though single readings can be large or run the other way;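 also: the enzyme is Sfp with the accession as filed and its product quenches rhodamine fluorescence; potency is read from the fitted curve at half-maximal effect; 0% = enzyme reaction without inhibitor and -100% = no enzyme wells; top concentration of the series not given in the record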
#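 Sfp 15 nM + cpd, 15 min RT; start w/ rhodamine-CoA 5 uM, BHQ-2-YbbR 12.5 uM (final); 50 mM Hepes pH 7.6, 10 mM MgCl2, 0.01% NP-40, 0.01% BSA; read 525/598 nm at 0 and 30 min.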
# gsp ag = agonists of gsp mutant (McCune-Albright syndrome) | gsp mutant cells, cAMP HTRF, 30 min; control for the full effect not named in the record | 340,000 tested, 0.13% active | Potency, µM (series often up to 76.9 µM), without a hit: at the highest dose activation (cAMP increase), hits mostly activators; active = well fitted activation curve with a large enough effect; inconclusive = small, poorly fitted or top-dose-only effect, or another doubt; inactive = no such curve, though single readings can be large or run the other way; cell line not stated here;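 also: phosphodiesterase inhibitor Ro 20-1724 added with compounds to block cAMP breakdown; potency is read from the fitted curve at half-maximal effect; nearly all actives have a fitted effect of over 60% in size; about a fifth of the inactives were tested at one dose only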
#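 Cells in DMEM/10% FBS with G418 were pretreated with compounds in DMSO plus […] (300 uM stock) for 30 min at 37C. cAMP was measured by HTRF (cAMP-d2 plus anti-cAMP antibody-K) after 30 min at room temperature.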
# ClpP mod = qHTS Assay for Activators of ClpP. purified B. subtilis ClpP, FRET peptide cleavage, 20 min. Potency, µM (top dose mostly 57.5 µM), inactives show at the top dose activity change, negative = active. 340,000 tested, 1.9% active. AID 651965, 2013; active = well fitted falling curve with a large enough effect; inconclusive = small, poorly fitted or top-dose-only effect; inactive = no such curve, though single readings can be large or run the other way; also: potency is read from the fitted curve at half-maximal effect; the source files actives as falling curves though it sought activators and does not explain the sign; nearly all actives have a fitted effect of over 65% in size; many hits overshoot -100%
# Target sequence (P80244 whole entry, looked up): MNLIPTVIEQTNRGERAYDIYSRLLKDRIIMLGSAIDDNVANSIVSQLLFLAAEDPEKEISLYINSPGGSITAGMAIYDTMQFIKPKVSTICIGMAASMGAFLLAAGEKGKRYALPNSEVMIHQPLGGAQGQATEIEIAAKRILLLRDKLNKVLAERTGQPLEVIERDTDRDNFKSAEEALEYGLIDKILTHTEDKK
#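 Purified B. subtilis ClpP, 10 microg/mL final in Tris/HCl pH8 with KCl, BSA, glycerol and Tween-20, cleaved an Abz/nitrotyrosine-quenched decapeptide. Fluorescence (ex 320, em 430) was read at 0 and 20 min at room temperature. Delta was normalized to 5.8 microM ADEP and DMSO/no-enzyme controls.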
# Menin-MLL FL inh = inhibitors of human menin-MLL interaction, wild-type MLL peptide. Fluorescence polarization, fluorescein-MLL peptide displacement from menin. FP activity change, % at 61.4 µM. 290,000 tested, under 10 active; inconclusive = falling polarisation curve, or a change in total fluorescence; inactive = total fluorescence flat and polarisation flat or rising; no compound was filed as active; the % refers to the polarisation; negative = inhibition;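 also: % of control where 0% means no effect; inhibitors lower the polarisation; unlabelled MLL peptide was the positive control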
# TRPV1 PAM = human TRPV1 potentiation; potentiation, % at 8.33 µM; Q8NER1; TRPV1-expressing cells, Fluo-8 calcium influx, capsaicin EC20 potentiation; host cell line not named in the record; control for the full effect not named in the record; 320,000 tested, 0.02% active; active means potentiation above 80%; inconclusive means 30% to 80%; inactive means below 30%; also: 0% is about no effect
# Target sequence (Q8NER1 whole entry, looked up): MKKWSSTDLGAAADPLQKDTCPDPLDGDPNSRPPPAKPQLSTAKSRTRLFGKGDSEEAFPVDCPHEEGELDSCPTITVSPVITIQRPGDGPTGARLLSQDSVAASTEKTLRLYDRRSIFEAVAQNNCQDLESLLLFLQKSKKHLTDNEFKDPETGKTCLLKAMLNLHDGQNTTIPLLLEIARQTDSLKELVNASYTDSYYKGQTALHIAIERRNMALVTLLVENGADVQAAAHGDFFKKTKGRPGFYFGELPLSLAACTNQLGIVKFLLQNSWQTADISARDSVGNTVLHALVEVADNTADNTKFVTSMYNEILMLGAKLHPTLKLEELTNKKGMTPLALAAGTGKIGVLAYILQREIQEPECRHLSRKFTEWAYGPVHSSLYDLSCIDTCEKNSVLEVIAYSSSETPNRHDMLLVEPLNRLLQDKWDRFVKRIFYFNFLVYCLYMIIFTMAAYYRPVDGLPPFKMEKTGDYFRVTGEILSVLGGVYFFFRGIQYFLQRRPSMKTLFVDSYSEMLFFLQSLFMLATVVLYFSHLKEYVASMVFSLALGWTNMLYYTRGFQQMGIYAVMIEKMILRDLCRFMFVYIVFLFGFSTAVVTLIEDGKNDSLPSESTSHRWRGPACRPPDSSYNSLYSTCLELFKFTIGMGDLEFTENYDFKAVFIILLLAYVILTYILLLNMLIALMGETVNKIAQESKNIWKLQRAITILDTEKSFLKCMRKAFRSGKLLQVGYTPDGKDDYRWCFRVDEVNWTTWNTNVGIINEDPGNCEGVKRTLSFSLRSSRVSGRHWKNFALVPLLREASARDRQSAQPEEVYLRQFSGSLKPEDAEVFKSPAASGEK
#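 Cells expressing TRPV1 were dye-loaded with Fluo-8 and read kinetically: 10 s baseline, 3 min after compound (agonist portion), then 2 min after EC20 capsaicin (allosteric enhancer portion). Calcium-bound dye fluorescence at 480/520 nm.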
# * hit, by the source's call; ? = inconclusive; · = no result given; [ ] = dose if it differs, or a comment. This is a random part of the collection. About 5.1% of those tested had a hit in this group.
SMILES,D2 PAM,gsp antag,Sfp inh,gsp ag,ClpP mod,Menin-MLL FL inh,TRPV1 PAM
CCN(CC)C(=O)CSc1nc(N)c2c3c(sc2n1)CC(C)CC3 (stereo not given),-17,-7%,-17%,-13%,-3.6%,-0.2,-9
O=C(NNc1ncccc1Cl)c1c(Cl)cccc1Cl,1,-6%,21%,22%[15.4 µM],-0.6%,-0.9,-3
COc1ccc(S(=O)(=O)Nc2cccc3c2O[C@@H](CN(C)Cc2ccc(C(=O)O)cc2)[C@@H](C)CN([C@H](C)CO)C3=O)cc1,11,-7%,·,·,-3.7%,·,·
CN(C)C(CNC(=O)C1CCN(S(=O)(=O)c2ccc(Cl)cc2)CC1)c1ccccc1 (stereo not given),-12,0%,7%,0%,·,-1.7,3
COc1ccccc1N(CC(=O)NCc1ccccc1)C(=O)CCC(=O)Nc1nccs1,-3,4%,1%,-37%[15.4 µM],·,-7.9,-4
COc1ccccc1NC1=C(Cl)C(=O)N(C2CCCCC2)C1=O,-20,-19%,-15%,0%,1.8%,-2.5,-7
COc1ccc(S(=O)(=O)Nc2cccnc2)cc1OC,0,8%,20%,-39%[inhibitor],·,4.3,7
CC(O)c1c(OCc2ccccc2)ncnc1OCc1ccccc1 (stereo not given),-6,3%,-15%,-23%,-5.7%,3.2,-26
Cc1ccc(S(=O)(=O)N2CCN(C(=O)COC(=O)c3cccc(Cl)c3)CC2)c(C)c1,-4,1%,·,-59%[inhibitor],-0.1%,·,4
O=C(CCC(=O)OCCCC(F)(F)C(F)(F)F)Nc1ccccc1,-12,12%,13%,-17%,0.7%,0.5,-11
Cc1c(C(=O)OCC(=O)Nc2c(C)n(C)n(-c3ccccc3)c2=O)cccc1[N+](=O)[O-],-4,4%,1%,13%,-0.1%,-2.1,5
CCC(C)[C@H](NC(=O)NCc1ccccc1Cl)C(=O)O (stereo not given in full),7,4%,16%,-30%[inhibitor],0.6%,1.8,-6
O=C(O)COc1ccc(/C=C/c2nc3ccc([N+](=O)[O-])cc3s2)cc1,-8,-6%,4%,13%,1.4%,?,-7
Cc1ccc(C(=O)NN2C(=O)C3C4C=CC(C4)[C@@H]3C2=O)cc1 (stereo not given in full),-17,6%,4%,?,-3.6%,1.4,-2
Cc1cc(NS(=O)(=O)c2ccc(NC(=O)c3ccoc3C)cc2)nc(C)n1,0,-4%,6%,?,-0.9%,3.3,10
COc1ccc(-c2nc(-c3ccccc3)nc(Cl)c2C#N)cc1,-3,-25%,-13%,16%,32µM*,-4.3,·
Cc1cccc(Cn2c(O)c(N=NC(=S)Nc3ccccc3F)c3ccccc32)c1,-14,-5%,4%,-7%,2.2%,-0.6,13
Cc1nn(-c2ccccc2)c(N)c1-c1ccccc1,-6,5%,20%,?,0.1%,-2.1,-4
COCCCNC(=O)/C=C/c1c(Cl)cccc1Cl,-14,12%,27%,-35%[inhibitor],-0.6%,·,22
CC(=O)N1c2c(cc(Br)cc2S(=O)(=O)NCc2ccccc2)CC1C (stereo not given),-9,-4%,-2%,-43%[inhibitor],·,-0.9,17
Cc1c(NC(=O)CN2C(=O)NC(C)(c3ccc4c(c3)OCCO4)C2=O)c(=O)n(-c2ccccc2)n1C (stereo not given),-12,13%,21%,-1%,0.9%,-2.0,-1
O=CNCc1nc2ccccc2n1CCc1ccccc1,-2,-5%,5%,0%[15.4 µM],-3.1%,-0.3,-7
CC(C)(COC(=O)Nc1ccccc1)COC(=O)Nc1ccccc1,-18,-18%,5%,0%,-4.7%,-16,23
COc1ccc(C(=O)OCC(=O)NCc2ccc3c(c2)OCO3)cc1S(=O)(=O)N1CCOCC1,-5,1%,·,-66%[inhibitor],1.3%,·,·
Cc1ccc(-c2cc(C(F)F)n3ncc(C(=O)N4CCc5ccccc54)c3n2)cc1,-2,-5%,?,?,-5.1%,0.4,-2
Cc1cc(C(=O)NNC(=O)CCCCC(=O)NNC(=O)c2cc(C)[nH]n2)n[nH]1,5,2%,79µM*,-1%,-1.7%,2.0,12
NC(=O)CC(NC(=O)Cc1cccc2ccccc12)c1ccc(NC2CC3CCC2C3)c([N+](=O)[O-])c1 (stereo not given),-10,3%,-3%,·,-1.2%,0.8,-5
O=C(OCC(=O)N1CCCc2ccccc21)c1cccnc1Cl,2,6%,15%,-1%,0.5%,6.8,14
Cc1cc(OCC(=O)N2CCCCCC2)ccc1[N+](=O)[O-],-3,3%,12%,?,47%,0.9,0
Cc1nn(-c2ccccc2)c2nc(N)c(C#N)c(-c3ccc(F)cc3)c12,-25,3%,14%,?,?,6.8,-1
CCOC(=O)C1CCN(CCC(=O)Nc2cccc(Cl)c2C)CC1,-17,3%,16%,2%,-1.7%,1.0,10
CCOc1cc(CNCCO)cc(Br)c1OCc1ccccc1,-8,2%,-4%,1%,·,-3.2,5
Cc1ccc(NC(=O)c2cc(-c3ccccc3O)n[nH]2)cc1C,-3,7%,14%,-10%[15.4 µM],·,4.9,6
O=C(NCc1cccs1)C(Cc1ccccc1)n1cccc1 (stereo not given),-2,-7%,-6%,4%,-2.6%,-4.2,-24
O=C(N/N=C/c1cccc(O)c1)c1csc2ccccc12,-5,-16%,-11%,9%,-3.6%,4.3,9
COc1ccc(CCNC(=O)CCCn2c(=O)c3cccn3c3cccnc32)c(OC)c1,1,6%,0%,5%,-14%,-3.8,-5
CC1=CS(=O)(=O)CC1Sc1nc2ccccc2[nH]1 (stereo not given),-10,5%,-6%,-3%,1.7%,4.7,6
COC(=O)Nc1ccc(SCC(=O)c2ccccc2)cc1,2,2%,-7%,8%,·,1.5,3
COc1ccc(N2CCN(C(=O)COC(=O)CNC(=O)c3cccc(OC(F)F)c3)CC2)cc1,2,-6%,·,28%,2.4%,·,15
Clc1ccc2nc(CSc3nc4ccccc4o3)cn2c1,12,1%,6%,?,-8.5%,0.1,3
CC(=O)OC1COC(N2CCc3cc(Br)c([N+](=O)[O-])cc32)C(OC(C)=O)C1OC(C)=O (stereo not given),-13,-13%,7%,39%,1.3%,-0.1,2
O=C(NCCCN1CCC(Cc2ccccc2)CC1)C1CCC(=O)N1C1CCCC1 (stereo not given),-4,5%,-1%,19%,-0.4%,-4.4,·
CC(O)CSc1nc2c(c(=O)n(C)c(=O)n2C)n1CCCc1ccccc1 (stereo not given),3,-6%,10%,?,-0.8%,-0.7,-2
CCOC(=O)c1ccc(N2C(=O)CC(N3CCN(Cc4ccccc4)CC3)C2=O)cc1 (stereo not given),-31,-6%,18%,-30%[inhibitor],0.1%,2.5,21
COc1cccc(N/C(SCc2ccccc2Cl)=C(/C#N)C(=O)NCc2cccs2)c1,-3,0%,24%,2%,1.3%,-1.0,6
CC[C@@H]1CC=C[C@H]2[C@H]1C(=O)N(Cc1ccccc1)[C@H]2c1cc(C)ccc1F,·,·,0%,·,·,3.4,-22
COc1ccc(C(CNC(=O)c2cccc(S(=O)(=O)Nc3ccc(C)cc3)c2)N2CCCCC2)cc1 (stereo not given),-42,-3%,·,0%,-2.0%,·,2
COCC(=O)N1CCCC(C(=O)c2ccc(C(F)(F)F)cc2)C1 (stereo not given),0,-6%,19%,-2%,-2.2%,-0.7,2
Cn1c(C(=O)O)cc2cc(F)ccc21,-11,-2%,7%,-53%[inhibitor],?,-1.1,-18
COc1ccc(C(=O)Nc2cccc(NC(C)=O)c2)cc1OC,-14,9%,7%,2%,-2.1%,-2.5,1

# Further records follow:
SMILES,D2 PAM,gsp antag,Sfp inh,gsp ag,ClpP mod,Menin-MLL FL inh,TRPV1 PAM
CCOc1ccccc1NC(=O)Cc1c(F)cccc1Cl,-3,4%,1%,26%,-0.5%,-0.8,5
COC(=O)C1=C(C)N=C2SC(C#N)=C(N)N2C1c1ccc(OCc2ccccc2)cc1 (stereo not given),18,-13%,1%,3%,0.0%,?,14
CSc1cccc(NC(=O)c2cc(S(=O)(=O)N3CCCCC3)c[nH]2)c1,-9,-2%,17%,5%,4.1%,-1.5,-3
Cc1cc(NC(=O)C(C)SCC(=O)N(C)CC(=O)Nc2ccc(F)cc2)no1 (stereo not given),12,11%,·,-35%[inhibitor],0.5%,·,6
CCC1(c2ccccc2)NC(=O)N(CC(=O)Nc2ccc3c(C)cc(=O)oc3c2)C1=O (stereo not given),-14,-13%,·,-17%,?,·,0
O=S(=O)(c1ccc(SCc2cccc(Cl)c2)nc1)N1CCCC1,3,1%,·,2%,-1.1%,·,-11
CC(Sc1nnc(-c2ccco2)n1N)C(=O)NC1CCCCC1C (stereo not given),-7,7%,·,-46%[inhibitor],-2.4%,·,9
Cc1cccc(OCC(=O)NNC(=O)c2cc(S(=O)(=O)N(C)C)ccc2N2CCCC2)c1,-4,4%,·,-18%,-8.1%,·,-7
O=C(NC(Cc1ccccc1)C(=O)N1CCCC(C(F)(F)F)C1)c1ccccc1 (stereo not given),-8,-5%,·,-26%,-1.0%,·,-14
COc1ccc(NC(=O)CN(C)C(=O)c2ccccc2CCc2ccccc2)cc1,-64,-18%,·,-15%[15.4 µM],·,·,11
COc1ccc(-c2nn(-c3ccccc3)cc2/C=N/O)cc1,-1,7%,3%,?,-3.5%,-0.5,-16
Cc1ccc(N(CC(O)CN2CCCC2)S(=O)(=O)c2ccccc2)cc1 (stereo not given),-13,3%,13%,-16%,-2.1%,3.3,3
O=C(Nc1ccc(S(=O)(=O)Nc2nccs2)cc1)c1c(F)c(F)c(F)c(F)c1F,-8,-11%,13%,-51%[inhibitor],2.2%,2.5,2
Cc1cc2ccc3ccccc3c2cc1CN(C)C,-19,7%,-5%,-5%[15.4 µM],·,-0.5,0
Cc1ccc(-c2cc(-c3ccc(Cl)cc3)c(C#N)c(N)n2)o1,-1,-9%,8.9µM*,?,?,?,13

# Three entries already listed, arranged by their value in Menin-MLL FL inh, falling:
SMILES | Menin-MLL FL inh
Cc1ccc(N(CC(O)CN2CCCC2)S(=O)(=O)c2ccccc2)cc1 (stereo not given) | 3.3
O=C(Nc1ccc(S(=O)(=O)Nc2nccs2)cc1)c1c(F)c(F)c(F)c(F)c1F | 2.5
COc1ccc(-c2nn(-c3ccccc3)cc2/C=N/O)cc1 | -0.5
